Mtb betalactam = beta-lactam sensitization of Mtb H37Rv; M. tuberculosis H37Rv growth with meropenem, percent inhibition; hits of this screen are not shown here; inhibition, % at 25 µM; hit rate 0.27% among 330,000; AID 434955;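 active means about 74% or more and at least 40 points above the plate without the antibiotic, then above 30% in a dose series; inconclusive means first-round hits that could not be retested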;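 further: growth measured after seven days incubation then overnight dye step; 0% = bacteria only wells and 100% = bacteria with antibiotic; twin plates without the antibiotic show which effects depend on it; some results filed as inactive read as strong as hits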
RecA splice inh = Mtb RecA intein splicing inhibition | P9WHJ3 | cell-free RecA intein splicing, fluorescence | inhibition, %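 (about 9 µM by stock and volumes)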 | hit rate 0.75% among 290,000; in the data active means inhibition above about 30%; inconclusive means no clear call, values can overlap the other calls;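 further: 0% = vehicle wells and 100% = reference inhibitor control wells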
Target sequence (P9WHJ3 whole entry, looked up, canonical isoform): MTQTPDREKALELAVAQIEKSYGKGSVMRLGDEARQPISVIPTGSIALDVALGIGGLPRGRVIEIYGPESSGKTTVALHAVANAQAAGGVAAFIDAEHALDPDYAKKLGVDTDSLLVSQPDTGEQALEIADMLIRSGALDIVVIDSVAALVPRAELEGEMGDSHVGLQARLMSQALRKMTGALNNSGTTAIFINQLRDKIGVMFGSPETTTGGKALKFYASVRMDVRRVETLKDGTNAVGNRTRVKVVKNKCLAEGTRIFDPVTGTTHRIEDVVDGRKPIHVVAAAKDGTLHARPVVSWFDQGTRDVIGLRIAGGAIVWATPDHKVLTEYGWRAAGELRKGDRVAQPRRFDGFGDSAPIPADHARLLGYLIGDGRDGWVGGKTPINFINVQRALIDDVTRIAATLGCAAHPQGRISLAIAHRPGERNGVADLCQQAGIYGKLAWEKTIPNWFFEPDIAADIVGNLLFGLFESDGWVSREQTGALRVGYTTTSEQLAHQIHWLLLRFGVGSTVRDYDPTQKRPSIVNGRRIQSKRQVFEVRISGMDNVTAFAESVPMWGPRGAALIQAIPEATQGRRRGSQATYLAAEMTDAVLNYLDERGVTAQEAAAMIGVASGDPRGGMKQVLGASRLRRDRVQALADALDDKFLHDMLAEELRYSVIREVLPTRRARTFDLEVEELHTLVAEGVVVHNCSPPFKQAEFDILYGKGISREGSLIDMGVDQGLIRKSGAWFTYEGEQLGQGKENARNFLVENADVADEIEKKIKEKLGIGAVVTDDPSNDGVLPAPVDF
Arbovirus anti = blocks arbovirus infection; arbovirus infection cell-based antiviral screen; inhibition, % at 10 µM; hit rate 0.37% among 200,000;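 active means inhibition from about 30%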;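 further: bluetongue infection of BSR cells; cell survival read as ATP light after 72 h; 0% = infected wells without compound and 100% = uninfected wells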
YopH inh = inhibitors of Yersinia enterocolitica YopH tyrosine phosphatase | hit rate 0.16% among 140,000 | fluorescence Ex485/Em525 | AID 898 | inhibition, %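 (about 10 µM by stock and volumes)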;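 active means inhibition of 50% or more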;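 further: controls were vehicle for no effect and minimum signal wells for full effect; inactives centre near -20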
Mtb growth = M. tuberculosis H37Rv growth inhibitors, H37Rv strain (AID 1626) | M. tuberculosis H37Rv growth inhibition; higher % means a stronger effect | hit rate 0.95% among 220,000 | inhibition, % at 10 µM, or IC50 in µM where a hit was titrated;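 active means confirmed in a dose series; inconclusive means inhibition above 80% but not taken into the dose series; inactive means below 80% or under 30% at every dose of the series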;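 further: bacteria incubated seven days before Alamar blue readout; 0% = bacteria only wells and 100% = bacteria with antibiotic wells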
Arbovirus anti repeat = also measured in Arbovirus anti; calls as there; inhibition, %; measured here: 10K subset replicate screen; many hits read low in the repeat;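 first of two repeat runs on a subset; 0% = infected and 100% = uninfected wells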
Starred values were filed as active, the others as inactive; ? = inconclusive; / = no result given.

SMILES	Mtb betalactam	RecA splice inh	Arbovirus anti	YopH inh	Mtb growth	others
O=C(NC(NC(=S)Nc1ccccc1C(=O)O)C(Cl)(Cl)Cl)c1cccc([N+](=O)[O-])c1 (stereo unspecified)	2	0.3	21	-36	-5%
CC(C)c1ccccc1OS(N)(=O)=O	-19	-4.0	/	/	/
O=C1NC(=S)NC(=O)C1C1CCCCC1	5	1.3	/	/	-7%
CCC(CC)NC(=O)CCc1nc2ccccc2c(=O)[nH]1	-5	-0.2	-4	10	-1%
O=C(O)C1CC=CCC1C(=O)NNS(=O)(=O)c1ccccc1 (stereo unspecified)	-4	-2.1	1	/	0%
COc1cccc(C(=O)Nc2ccc(NC(=O)C(C)(C)C)cn2)c1	1	-3.4	9	5	-12%
Cc1ccc(S(=O)(=O)NC(=NC2CCCCC2)c2ccc(Cl)cc2)cc1	-5	-0.3	/	/	/
COc1ccccc1N1C(=O)c2ccc(C(=O)Nc3ccc(C(=O)O)cc3)cc2C1=O	3	-0.8	/	/	/
CCOC(=O)CCN(Cc1ccccc1)S(=O)(=O)c1csc(C(N)=O)c1	22	-1.0	/	/	/
COc1cc(CN(C)C(C)C(=O)Nc2ccc([N+](=O)[O-])cc2Cl)ccc1OC(F)F (stereo unspecified)	10	0.6	10	-34	8%
Cc1noc2ncnc(N3CCN(c4ccc(F)cc4)CC3)c12	-1	-1.8	0	/	-4%
COc1cccc(C(=O)N=c2sc3c(C)ccc(OC)c3n2C)c1	5	2.1	-5	/	2%
Cc1ccc(N2C(=O)N(CC(=O)NCc3ccc(Cl)cc3)C(=O)C2C)cc1 (stereo unspecified)	-6	1.3	-5	-30	-8%
CCc1ccc2c(c1)[C@H]1OCC[C@H]1[C@@H](c1cccs1)N2	4	2.5	-12	-21	4%
CCCc1nc2c(nnn2Cc2ccccc2)c(=O)[nH]1	4	-0.3	4	-11	4%
CC1(C)Cc2c(c(=S)nc(-c3ccccc3)n2Cc2cccnc2)CO1	-2	-0.8	/	/	-16%
O=C(NCCOC12CC3CC(CC(C3)C1)C2)c1cccc(Br)c1	9	7.7	-26	-28	0%
COC(=O)c1cc(NC(=O)C2CCCN(S(=O)(=O)c3c(C)n[nH]c3C)C2)cc(C(=O)OC)c1 (stereo unspecified)	-4	0.2	-3	/	6%
CCN(CCCNC(=O)Cn1ncc2c(=O)oc3ccccc3c21)c1cccc(C)c1	-2	-1.2	-1	-51	/	Arbovirus anti repeat=1
Cc1ccc2nsnc2c1NC(=O)c1cncc(Br)c1	-5	18	-5	/	1%

Next section, starting with the last 5 of the part before.
SMILES	Mtb betalactam	RecA splice inh	Arbovirus anti	YopH inh	Mtb growth	others
CC1(C)Cc2c(c(=S)nc(-c3ccccc3)n2Cc2cccnc2)CO1	-2	-0.8	/	/	-16%
O=C(NCCOC12CC3CC(CC(C3)C1)C2)c1cccc(Br)c1	9	7.7	-26	-28	0%
COC(=O)c1cc(NC(=O)C2CCCN(S(=O)(=O)c3c(C)n[nH]c3C)C2)cc(C(=O)OC)c1 (stereo unspecified)	-4	0.2	-3	/	6%
CCN(CCCNC(=O)Cn1ncc2c(=O)oc3ccccc3c21)c1cccc(C)c1	-2	-1.2	-1	-51	/	Arbovirus anti repeat=1
Cc1ccc2nsnc2c1NC(=O)c1cncc(Br)c1	-5	18	-5	/	1%
COc1cccc(C(=O)Nc2ccccc2N2CCOCC2)c1	2	0.5	3	7	-1%
CCOC(=O)c1[nH]c(C)c(C)c1C	-5	-1.4	7	-23	-11%
COc1cc(C(=O)NCc2ncccc2C)ccc1OC1CCN(C(C)=O)CC1	-1	-2.3	/	/	/
CSc1ncccc1C(=O)NCc1ccccc1Cl	1	-2.1	/	/	/
CC(C)(C)c1ccc(C(=O)NNC(=O)C2CCCCC2)cc1	-2	-0.4	2	0	-1%
Cc1nc2nc(SCc3ccc([N+](=O)[O-])cc3)[nH]c2cc1Br	-2	-1.3	/	/	5%
Cc1ccc(C(=O)c2c(NC(=O)CSc3nnc(N)s3)sc3c2CCCC3)cc1	1	0.1	0	-27	9%
CCCCN(CCCC)CC(O)CN1C(=O)NC(C)(C)C1=O (stereo unspecified)	-7	2.6	1	-2	6%
COc1ccc(/C(N)=N/OC(=O)c2cccc([N+](=O)[O-])c2)cc1	-6	0.6	-5	7	-1%
COc1ccc(OC)c(-c2cc(C(=O)Nc3cccc(Cl)c3)no2)c1	4	2.9	-7	-26	-1%
COc1cc(/C=N/NC(=S)Nc2cccc(S(=O)(=O)N(C)C)c2)ccc1O	-4	-12	-3	-31	3%
CCn1c(O)c(C2=NCCCC2)c2ccccc21	9	-3.1	1	-37	5%	Arbovirus anti repeat=2
Cc1ccc(-n2ncc3c(=O)n(CC(=O)NCc4ccco4)cnc32)cc1C	-7	-2.1	-19	-19	-14%	Arbovirus anti repeat=-13
COc1cc2c(cc1NC(=O)CSc1nnnn1-c1ccccc1)oc1ccccc12	6	-1.6	-16	-43	5%
CCOC(=O)C(Cc1ccccc1)NC(=O)CCc1nnc2ccc(N3CCCC3)nn12 (stereo unspecified)	7	-2.0	/	/	/
CCCC(C(=O)NC1CCCC1)N(C(=O)Cn1nnc(-c2ccc(C)o2)n1)c1ccccc1OC (stereo unspecified)	0	0.3	-3	-20	10%
CCOC(=O)N1CCN(C(=O)COC(=O)C2CCN(S(=O)(=O)c3c(C)c(C)cc(C)c3C)CC2)CC1	-8	-2.8	/	/	/
N#Cc1ccc(-c2ccc(OCC(O)Cn3nnc4ccccc43)cc2)cc1 (stereo unspecified)	22	/	2	-50	17%
Clc1ccccc1-c1nnc2sc(-c3ccncc3)nn12	-2	2.8	5	-14	6%	Arbovirus anti repeat=-2
O=C(c1ccc(NS(=O)(=O)c2cccs2)cc1)N1CCOCC1	-4	0.5	/	/	/

A portion from the list above:
SMILES	Mtb betalactam	RecA splice inh	Arbovirus anti	YopH inh	Mtb growth	others
Clc1ccccc1-c1nnc2sc(-c3ccncc3)nn12	-2	2.8	5	-14	6%	Arbovirus anti repeat=-2
O=C(c1ccc(NS(=O)(=O)c2cccs2)cc1)N1CCOCC1	-4	0.5	/	/	/

More results:
SMILES	Mtb betalactam	RecA splice inh	Arbovirus anti	YopH inh	Mtb growth	others
CCOC(CCNC(=O)c1cc2c(=O)[nH]c3ccccc3c2s1)OCC	-7	4.6	/	/	/
CCOC(=O)C1SC2(C(F)(F)F)CC1(O)c1c(C)cc(C)nc1O2 (stereo unspecified)	/	0.4	10	-12	0%
O=C(Nc1ccc2[nH]ncc2c1)c1ccccc1	-3	-0.2	/	/	/
COc1ccccc1NC(=O)N(Cc1cc2cc(OC)c(OC)cc2[nH]c1=O)CC1CCCO1 (stereo unspecified)	-6	-3.2	-3	-13	-2%
COc1ccc(COc2ccc3ccc(=O)oc3c2)cc1	9	-2.0	/	/	/
Cc1oc2c(c1C(=O)N1CCOCC1)C(=O)c1ccccc1C2=O	2	86*	-24	/	1%
Cc1cc(NC(=O)C2C3C=CC(C3)C2C(=O)O)no1 (stereo unspecified)	?	1.5	4	-9	0%
CCc1ccc(-c2cc(C)no2)cc1S(=O)(=O)Nc1cc(C)on1	5	0.9	/	/	/
CN1CCN(c2ccccc2NC(=O)c2ccc(N3CCCC3)c([N+](=O)[O-])c2)CC1	-16	1.4	-22	/	2%
CC1=C(C(=O)OCc2ccccc2)C(c2ccc(Cl)cc2Cl)NC(=O)N1CCCCCC(=O)O (stereo unspecified)	4	-0.5	15	-30	-11%
NC(=O)CSc1nnnn1-c1ccccc1Cl	-3	-2.1	0	/	4%
COc1ccc(Br)cc1CNC(=O)c1ccc2c(c1)N(C)CCS2	-3	-0.7	/	/	/
COc1ccccc1CNC(=O)c1cc2c(s1)CS(=O)(=O)C2	5	-4.2	1	-22	1%
CCN(C(=O)CSc1nnc(-c2ccccc2)o1)c1c(N)n(Cc2ccccc2)c(=O)[nH]c1=O	-9	-0.9	4	/	4%
Cc1cc(C)c2c(-n3cccc3)c(NC(=O)OCc3ccccc3)sc2n1	3	-5.0	1	-5	-3%
C=CCN(C(=O)CSC1=NC(=O)CN1C(C)=O)c1nc(C)c(-c2ccccc2)s1	-3	15	-10	/	1%
CC(C)(C)NC(=O)NC(=O)COC(=O)C1c2ccccc2Oc2ccccc21	5	-1.8	/	/	/
C=C(C)COc1ccc(C2NC(=O)c3ccccc3O2)cc1OCC (stereo unspecified)	-4	-1.1	/	/	/
CCOC(=O)CN1CC23C=CC(O2)C(C(=O)Nc2ccc(F)cc2)C3C1=O (stereo unspecified)	-1	-4.4	-3	3	-12%
O=C(Cn1nnc2ccccc2c1=O)NCc1ccc(Cl)cc1	2	-2.1	10	/	-5%
O=C(NCc1ccccc1)N1CCN(CCO)CC1	-6	-1.2	/	/	/
Cc1c(/N=C(\[O-])Nc2ccc(Br)cc2)sn[n+]1C	-12	-1.6	/	/	7%
Fc1ccccc1/C=N/Nc1ncnc2ccccc12	-6	-6.9	16	/	-4%
CC(=O)NC(Cc1ccc(C)cc1)C(=O)NC1CCN(c2ncccc2[N+](=O)[O-])CC1 (stereo unspecified)	0	0.3	0	-15	5%
CN(CC(=O)Nc1ccc(Cl)c(C(F)(F)F)c1)C(=O)CCN1C(=O)C2CC=CCC2C1=O (stereo unspecified)	-5	0.1	/	/	/
COc1ccc(N(CC(=O)Nc2cc([N+](=O)[O-])ccc2C)S(C)(=O)=O)cc1OC	-6	-0.3	/	/	-8%
O=C(NCCc1c[nH]c2ccccc12)C(=O)NCC1OCCN1S(=O)(=O)c1ccc(Cl)cc1 (stereo unspecified)	5	1.0	5	2	1%
Cc1ccccc1C(=O)N1CCC(C(=O)N2CCN(S(=O)(=O)c3ccccc3F)CC2)CC1	-4	4.1	-2	/	1%
CC(C)(C)SCCNC(=O)c1ccc(Cl)c([N+](=O)[O-])c1	100	1.2	7	-28	?
CCN(c1ccc(OC)cc1)S(=O)(=O)c1nnc(NC(=O)COc2ccc(F)cc2)s1	4	-0.1	/	/	/
CCCN(C(=O)CSCC(=O)Nc1cccc(C)c1)c1c(N)n(Cc2ccccc2)c(=O)[nH]c1=O	1	-1.2	/	/	/
O=C(Nc1ccsc1C(=O)NC1CCCCC1)c1ccc(F)cc1	-8	2.6	-9	-32	1%
O=C(c1ccc(S(=O)(=O)N2CCCC2)cc1)N1CCC(CN2C(=O)c3cccc4cccc(c34)C2=O)CC1	74	3.8	/	/	42%
O=C(CCS(=O)(=O)c1ccccc1)NCCS(=O)(=O)c1ccccc1	-10	-4.7	2	/	-5%
O=C(NCCCN1CCc2ccccc2C1)C1CCN(S(=O)(=O)N2CCCC2)CC1	-4	/	9	-40	2%
COc1cccc(C2Nc3ccccc3C(=O)N2c2ccc(F)cc2)c1O (stereo unspecified)	-1	0.5	/	/	/
Cn1c(=O)oc2cc(S(=O)(=O)Nc3ccc(O)cc3)ccc21	-7	-4.5	/	/	/
COc1cc(/C=C/C(=O)OCC(=O)NC(=O)NC(C)(C)C)ccc1OCC#N	56	-3.2	2	-23	53%
CCn1c(=O)cc(SCC(=O)N(C)Cc2ccccc2)c2ccccc21	-11	4.2	-13	-23	-7%
COC(=O)c1ccc(C(c2c(N)n(CC(C)C)c(=O)[nH]c2=O)N2CCN(c3ccccc3)CC2)cc1 (stereo unspecified)	-2	4.7	-3	-31	-1%
NC(=S)NNC(=O)Nc1cccc(Cl)c1	-5	1.6	-4	0	3%
O=C(NCCc1ccncc1)c1ccccc1F	-10	-1.7	0	-1	11%
Cc1ccc(C(=O)CSc2nnc(COc3cccc4cccnc34)o2)cc1	12	1.0	13	-25	6%
O=C(N/N=C/c1ccc(-c2cccc(C(F)(F)F)c2)o1)c1cccc(F)c1	92	-61	-12	-11	?
O=C(NCc1ccc(F)cc1)c1ccc(N2CCOCC2)c([N+](=O)[O-])c1	1	-2.5	/	/	/
O=C(CSCC(=O)NC1CC1)Nc1ccccc1	-12	-0.2	4	-26	-9%	Arbovirus anti repeat=-6
CCOC(=O)C1(Cc2cccc(OC)c2)CCCN(C(=O)c2ccc(OC)o2)C1 (stereo unspecified)	0	2.3	/	/	/
Cc1ccc(SCc2ccc(C(=O)NCc3ccncc3)cc2)cc1	23	1.9	3	-41	5%
CC1CN=C(N(C(=O)Nc2ccccc2)C(C)C)S1 (stereo unspecified)	0	2.5	3	-10	-4%
Cc1cc(-c2c(C)[nH]n(-c3ccccc3)c2=O)n(-c2ccccc2)n1	0	/	9	-42	-9%
COc1ccc(CCNC2CC(=O)N(CCc3ccccc3)C2=O)cc1 (stereo unspecified)	0	-1.6	11	-8	-3%
COc1ccc(CC(=O)OCC(=O)Nc2cccc(Br)c2)cc1	-1	-0.5	6	/	0%
Cc1nc(C)c2c(c1C(F)(F)F)-c1ccccc1C2(F)F	2	2.1	1	1	0%

Source: PubChem

The list is partial, so the mix of outcomes need not match the whole.
